BJeLR viability: BJeLR cell viability loss; AID 1554; 300,000 compounds, 0.17% hits; BJeLR (HRASV12) viability, CellTiter-Glo ATP luminescence, 48 h; reference of the scale not given here; inhibition, % (no concentration beside the values);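 active means replicate mean above 50%; inconclusive means above 50% but judged a plate artefact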;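 further: 50 nL library stock added to about 25 µL; numbers are from one replicate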
RN4220 kill: kills Staphylococcus aureus RN4220. S. aureus RN4220 growth, OD600, 16 h. 330,000 compounds, 0.33% hits. inhibition, % (no concentration beside the values);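 active means z-score of -3 or lower and OD600 up to 0.18 on both plates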;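 further: plate controls were untreated cells for no effect and reference antibiotic for full effect; stock transfer was 100 nL into about 80 µL; one replicate is shown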
Mtb hypoxia rep: inhibitors of hypoxia-regulated fluorescent reporter in Mycobacterium tuberculosis; M. tuberculosis hypoxia-regulated fluorescent reporter, fluorescence; fluorescence inhibition, % (test concentration not listed); 300,000 compounds, 0.1% hits; AID 1159583;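 active means 35 to 45% if threefold the growth effect, above 45% if 1.5-fold the growth effect; inactive means the rest, general growth blockers included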;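 further: wells of about 50 µL received 100 nL stock; 0% = vehicle wells and 100% = reference inhibitor wells; whole bacteria with a GFP reporter of the hypoxia response; strong numbers were not always called active; many hits fall short of the cut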
Autofluor counter: counter-screen for toxin protease inhibitors: compound fluorescence; compound autofluorescence counterscreen, microsphere flow cytometry; active compounds read high; AID 624483; fluorescence intensity (concentration not given with the values); 360,000 compounds, 3.1% hits;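 active means at least 3 SD above the mean of all compounds, about 16000 in these data; inconclusive means too few beads counted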;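 further: 100 nL of 1 mM stock went into each well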
PrP 5UTR inh: inhibition of PrP 5' UTR reporter expression. AID 488862. cell-based PrP 5' UTR mRNA reporter, plate reader. inhibition, % (no concentration beside the values). 340,000 compounds, 0.35% hits;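 active means every replicate at 50% or more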;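 further: 0 = median of the neutral control wells; tested in H4 reporter cells; numbers are from one replicate; inactives centre near -14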
ugtP null kill: kills S. aureus RN4220 lacking UgtP; 330,000 compounds, 0.54% hits; AID 1259309; S. aureus RN4220 ugtP deletion, OD600 growth, 16 h; some inactives read as strong as hits; growth inhibition, % (no concentration beside the values);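 active means z-score under -3 and OD600 up to 0.15 on both plates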;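 further: plate controls were untreated wells for no effect and antibiotic for full effect; wells of about 80 µL received 100 nL stock; the first replicate is given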
Mtb hypoxia rep growth: further read-out of Mtb hypoxia rep, marked with its call; growth inhibition, %; measured here: M. tuberculosis growth (absorbance);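 0% = vehicle and 100% = reference antibiotic; read after six days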
Starred values were filed as active, the others as inactive; ? = inconclusive; · = no result given.

SMILES	BJeLR viability	RN4220 kill	Mtb hypoxia rep	Mtb hypoxia rep growth	Autofluor counter	PrP 5UTR inh	ugtP null kill
Cc1cc(=O)n2c(n1)SCOC2	-3	-1.6	-6	-6	·	-9	-2
N/C(=N\OC(=O)c1ccc(F)cc1)c1ccccc1	-7	-0.2	-6	-8	22601*	-105	-5
CCc1ccc(NC(=O)CN2C(=O)COc3ccc(S(=O)(=O)N4CCCC4)cc32)cc1	-14	-3.3	-9	-5	5721	-9	5
COc1cccc(NC(=O)CNc2cc(S(=O)(=O)N3CCOCC3)ccc2N2CCCC2)c1	·	4.3	3	6	3415	-22	7
COc1cccc(NC(C(=O)Nc2cccc(C(C)=O)c2)c2ccccc2)c1 (centres undefined)	0	·	·	·	7731	-26	·
O=C(Nc1ccccc1F)c1ccccc1-c1ccc(C(F)(F)F)cc1	8	0.0	3	2	9405	-17	3
O=C(/C=C/c1cccnc1)c1ccccc1O	0	2.1	15	7	3126	-16	-4
Cc1ccc(-c2cc(C(=O)NN=Cc3c[nH]c4ccccc34)[nH]n2)cc1	·	-11	9	2	·	·	-17
Cc1ccc(N2C(=O)C(=CN3CCN(C(=O)c4ccco4)CC3)C(=O)NC2=S)cc1C	·	6.1	8	9	·	·	2
COc1ccc(/C=C(/NC(=O)c2ccc(C)cc2)C(=O)NCC2CCCO2)cc1 (centres undefined)	-1	2.4	17	1	3282	-5	5
COc1ccccc1NCC(=O)NN=C/C=C/c1ccccc1	·	2.6	-11	-6	·	·	3
CC1CCC(NC(=O)COc2ccc(C(=O)c3ccccc3)cc2)CC1 (centres undefined)	19	-0.2	4	12	2003	-21	12
CCCn1c(N)c(C(=O)CSc2nnc(-c3c[nH]c4ccccc34)n2C2CC2)c(=O)[nH]c1=O	·	3.2	5	3	3370	-13	-8
CN(CC(=O)Nc1nc2ccccc2s1)S(=O)(=O)c1ccc(Cl)cc1	-2	-4.4	-2	11	6300	-13	-24
Cc1nc2cccc(C)n2c(=O)c1Cl	-2	3.7	6	2	3311	-13	3
COc1ccccc1CC1(C)NC(=O)N(CC(=O)N2CC(C)OC(C)C2)C1=O (centres undefined)	22	-2.0	·	·	4088	-33	-2
CC(OC(=O)CNC(=O)c1ccc2c(c1)OCO2)C(=O)NCCC1=CCCCC1 (centres undefined)	3	1.8	·	·	4802	-18	10
O=[N+]([O-])c1cccc(C=Nn2c(-c3cccnc3)n[nH]c2=S)c1	·	1.3	-4	5	·	·	2
CC1(CC(=O)NN=Cc2cc3c(cc2Br)OCO3)OCCO1	·	8.7	13	6	·	·	-3
Cc1ccccc1N1C(=O)[C@@H]2Cc3ccccc3CN2C1=O	4	2.9	5	5	19296*	-24	-4
CCc1cc(=O)oc2cc(OCC(=O)N3CCC[C@H]3C(=O)O)ccc12	-4	4.1	·	·	4477	-26	8
Cc1cccc2nc(CSc3nc4ccc([N+](=O)[O-])cc4[nH]3)cn12	8	0.7	0	-3	6338	-28	4
O=C(NN=Cc1cccnc1)c1ccc(NC(=O)c2ccc(F)cc2)cc1	·	0.3	6	-5	·	·	5
COc1cc(OC)cc(C(=O)N2CCN(Cc3ccc4c(c3)OCO4)CC2)c1	-4	1.6	5	0	3453	-17	11
CCCCC(=O)Nc1ncc2c(n1)CC(C)(C)CC2=O	11	-1.1	·	·	2364	-35	0
Going on with the list:
SMILES	BJeLR viability	RN4220 kill	Mtb hypoxia rep	Mtb hypoxia rep growth	Autofluor counter	PrP 5UTR inh	ugtP null kill
Cc1nnc(SCc2ccccc2C#N)n1-c1ccccc1	-5	2.9	·	·	3856	-7	6
CCCCN1C(=O)/C(=C2/C=CC=CN2C)SC1=S	0	4.3	20	12	4414	-27	0
CC(=O)Nc1ccc(S(=O)(=O)N(C)CC(=O)NC2=NCCS2)cc1	4	-0.7	·	·	2757	-21	2
Cc1cc([N+](=O)[O-])ccc1NS(=O)(=O)c1ccccc1	·	8.1	20	14	3563	-18	5
COc1cc(Cl)c(C)cc1NC(=O)CCCn1c(=O)oc2ccccc21	-3	5.4	6	-6	1982	8	-1
CCO/C(C)=N/n1c2nc3ccccc3nc2c2c(=O)n(Cc3ccccc3Cl)c(C)nc21	3	·	·	·	5816	-15	·
Cc1nc(Cl)sc1C(=O)Nc1ccc(Cl)cc1	-13	3.2	3	6	2151	-18	4
Cc1ccc(/C=C/S(=O)(=O)NCC(=O)OCC(=O)Nc2ccc(C(N)=O)cc2)cc1	2	2.9	-2	-3	6366	-16	-6
CC1CCCN(C(=O)/C(=C/c2ccco2)NC(=O)c2ccccc2)C1 (centres undefined)	-4	1.3	14	1	3229	-25	-2
COc1cc(OC)cc(-c2cc3nc(C)c(CCC(=O)O)c(C)n3n2)c1	·	3.5	7	4	4340	54*	-3
COc1ccc(S(=O)(=O)N2CC(C)N(S(=O)(=O)c3ccc(OC)cc3)CC2C)cc1 (centres undefined)	1	5.1	11	-1	·	·	-3
COC(=O)c1ccc(NC(=O)CCS(=O)(=O)c2ccc(Br)cc2)cc1	-1	-1.7	1	-1	2458	-14	9
CC(C(=O)NCC1CCCO1)n1cccc1C(=O)c1ccccc1 (centres undefined)	2	-8.8	4	5	2969	-22	-3
CC(C)Cc1ccc(C(C)C(=O)N2CCOCC2)cc1 (centres undefined)	-2	8.7	5	5	22712*	-44	1
COC(=O)Cc1[nH]nc2c1C1(CCSCC1)C(C#N)=C(N)O2	-3	2.2	5	1	8666	-20	-2
Cc1ccc(-c2nn(CC(=O)N(C)C)c(=O)c3ccccc23)cc1S(=O)(=O)N(C)C	-3	7.9	1	8	7016	-14	2
O=C(NC1CCCCCCC1)c1cc(-c2ccccn2)nc2ccccc12	2	3.5	-11	5	3862	-40	4
N#Cc1ccccc1NC(=O)CN1CC=C(c2ccccc2)CC1	-5	3.8	6	2	4450	-9	-3
O=C(COc1ccccc1Cl)Nc1cccc(S(=O)(=O)N2CCCC2)c1	·	4.2	8	6	3024	-18	-2
CCO[C@@H]1OC(C(=O)NCc2nc3ccccc3[nH]2)=C[C@H](C2CC2)[C@H]1CCCO	13	·	·	·	3995	-20	·
Cc1ccc(/C=N/Nc2nc(C)cc(C)n2)cc1	-3	·	·	·	3920	-13	·
O=C(COC(=O)c1ccc(F)c(S(=O)(=O)N2CCOCC2)c1)NCCc1ccccc1	4	·	·	·	?	12	·
CCS(=O)(=O)N1CCCC(C(=O)NC2CCCCC2)C1 (centres undefined)	-4	-7.0	18	12	3046	-13	-1
O=C(O)c1cncc(C#CCC2CCCCC2)c1	8	15	-6	1	3755	-23	5
Cc1nc2ccc(NC(=O)c3sccc3C)cc2s1	-2	-1.0	-4	11	3211	-95	-3

Whole records, looked up by structure. Order of screens: BJeLR viability, RN4220 kill, Mtb hypoxia rep, Mtb hypoxia rep growth, Autofluor counter, PrP 5UTR inh, ugtP null kill
COC(=O)Cc1[nH]nc2c1C1(CCSCC1)C(C#N)=C(N)O2 is listed as -3, 2.2, 5, 1, 8666, -20, -2
Cc1ccc(/C=N/Nc2nc(C)cc(C)n2)cc1 is listed as -3, ·, ·, ·, 3920, -13, ·
Cc1cc([N+](=O)[O-])ccc1NS(=O)(=O)c1ccccc1 is listed as ·, 8.1, 20, 14, 3563, -18, 5
CC1CCCN(C(=O)/C(=C/c2ccco2)NC(=O)c2ccccc2)C1 (centres undefined) is listed as -4, 1.3, 14, 1, 3229, -25, -2
CCO/C(C)=N/n1c2nc3ccccc3nc2c2c(=O)n(Cc3ccccc3Cl)c(C)nc21 is listed as 3, ·, ·, ·, 5816, -15, ·

(list continues)
SMILES	BJeLR viability	RN4220 kill	Mtb hypoxia rep	Mtb hypoxia rep growth	Autofluor counter	PrP 5UTR inh	ugtP null kill
COc1cc(C=NNC(=O)c2ccncc2)ccc1OC(=O)c1ccc([N+](=O)[O-])cc1	·	4.8	8	9	·	·	-5
Cc1c(NC2=CC(=O)CC(C)(C)C2)ccc([N+](=O)[O-])c1C	-6	3.0	7	8	2042	-25	4
Cc1cccc(C)c1OCc1cc(C(=O)N2CCN3CCCC3C2)no1 (centres undefined)	5	3.4	13	5	6031	-24	2
Cc1ccc(Nc2nc(Cl)c(C=O)s2)cc1Cl	0	-4.0	2	0	7281	-24	7
Cc1cc(C(=O)O)ccc1-c1ccc(CO)o1	-4	9.3	16	9	3304	-21	9
O=S(=O)(NCc1ccccc1)c1ccc(S(=O)(=O)N(Cc2ccccn2)Cc2ccco2)cc1	8	0.3	5	-9	8071	-8	-3
CCn1c(-c2csc3c2CCCC3)n[nH]c1=S	-1	7.8	8	5	2290	-5	2
Cc1ccc(NCc2ccncc2)c(Br)c1	-12	1.4	2	6	4286	2	8
Cn1cccc1C(=O)OCC(=O)Nc1ccc2c(c1)OCO2	9	0.8	6	7	4414	-8	3
COCc1cc(=O)n2[nH]c(C(C)(C)C)cc2n1	-10	0.6	5	5	4127	-31	-4
COc1cc(OC)c2c(c1)C(=O)OC2OC (centres undefined)	-1	2.2	-9	-5	5731	-15	3
COC(=O)NCC1(C)CC(NC(=O)OC)CC(C)(C)C1 (centres undefined)	-10	2.6	11	4	10183	-25	-1
O=C(c1ccncc1)N1CCN(C(=O)c2ccncc2)CC1	4	2.2	-2	12	22332*	-1	-3
COCCN(C(=O)CCc1nnc(Cc2c[nH]c3ccccc23)o1)C(C)C	8	3.1	-7	-1	3440	-9	6
C=CCOc1c(Br)cc(C2NC(=O)NC(C)=C2C(C)=O)cc1OCC (centres undefined)	2	-0.6	1	13	22042*	-3	-4
COc1ccc(CC(=O)NN=Cc2cccs2)cc1OC	·	3.9	4	5	·	·	5
C=CCOC(=O)C1=C[C@@H](c2coc3ccccc3c2=O)C[C@@H](OCc2ccc(CO)cc2)O1	3	·	·	·	4323	-28	·
CC(c1ccco1)N(C(=O)c1ccccc1NS(=O)(=O)c1ccc(Cl)cc1)c1ccccn1 (centres undefined)	-9	14	8	0	2597	-15	-14
CCOC(=O)CSc1ncc(-c2cccc(Cl)c2)cn1	-10	8.1	6	1	11425	-17	-7
O=C(Nc1ccc(Cl)cc1Cl)c1csc(-c2cccnc2)n1	0	6.1	4	-1	3763	-58	-10
Cc1ccc(S(=O)(=O)NCCC(=O)NC(C)CCc2ccccc2)cc1 (centres undefined)	-5	1.2	12	-1	?	-24	-1
CC(C)(C)c1ccc(C(=O)NC2CCN(Cc3ccccc3)CC2)cc1	4	-0.6	1	-1	4157	-3	15
O=C(NNC(=O)C1CC1)c1cc(Br)c(Br)s1	·	1.4	9	7	3609	-15	-8
CC(C)CN(C(=O)c1ccco1)C1CCS(=O)(=O)C1 (centres undefined)	1	2.0	-1	-14	6018	0	7
Cc1nn(-c2ccccc2)c(NC(=O)c2ccccc2)c1Br	-4	0.5	-11	5	3621	-15	-7
Other results:
SMILES	BJeLR viability	RN4220 kill	Mtb hypoxia rep	Mtb hypoxia rep growth	Autofluor counter	PrP 5UTR inh	ugtP null kill
Cc1ccc(C(=O)C2CCN(CC(=O)Nc3nc(C)cs3)CC2)cc1	11	4.2	13	3	7797	0	4
CN1CCN(CC(=O)Nc2nnc(-c3cccs3)s2)CC1	-5	·	·	·	2108	-5	·
CN(C)/C=C(\C=O)c1onc(-c2ccccc2Cl)c1C#N	2	4.7	13	8	4625	-19	3
CC(C)OC(=O)c1ccc(NC(=O)c2ccco2)cc1	3	-6.8	5	14	3373	-58	-2
CCC(=O)Nc1ccc(C=C(C(C)=O)C(C)=O)cc1	10	-0.7	-10	-7	4020	-15	-3
COc1ccccc1NC(=O)N1CCN(c2ccc3nnc(-c4ccc(F)cc4)n3n2)CC1	16	1.4	7	2	4982	-23	7
COc1cc2ccccc2cc1C(=O)Nc1sc2c(c1C(N)=O)CCN(C(C)C)C2	41	·	·	·	4566	13	·
CCOc1ccc(N2C(=O)CC(N3CCN(C4CCc5ccccc5C4)CC3)C2=O)cc1 (centres undefined)	-8	-6.0	15	5	2881	-15	-4
CCc1cc(C(c2ccccn2)N2CCN(C)CC2)c(NC(=O)c2ccccc2)s1 (centres undefined)	9	3.0	-5	5	2332	-30	4
CN1C(N)=NC(=O)/C1=C\c1ccc(Br)cc1	-4	1.7	13	-1	3508	-26	1
CCC(C)NC(=O)c1cc2c(=O)n3cccc(C)c3nc2s1 (centres undefined)	-8	-0.1	4	4	4064	·	7
OCC[C@@H]1C[C@H](O)[C@@H](O)[C@@]2(CCc3ccccc3CO2)O1	-1	·	·	·	3015	10	·
O=C(COC(=O)C1CCN(c2ccc(C(F)(F)F)cn2)CC1)Nc1ccc(Cl)cn1	-2	·	·	·	4476	-14	·

Screening results (PubChem BioAssay)

No enrichment for hits (roughly 3.9% active in at least one column).
